Compound activity: PubChem, NMMLSC
Bead autofluor: compound fluorescence in toxin protease inhibitor counterscreen; compound autofluorescence counterscreen, microsphere flow cytometry; active compounds read high; fluorescence intensity (no concentration beside the values); 360,000 tested, 3.1% active;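 active = at least 3 SD above the mean of all compounds, about 16000 in these data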;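 note: 100 nL of 1 mM stock went into each well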
Numbers without * were called inactive. Some of the compounds tested. The share of hits here may be higher or lower than overall.

SMILES | Bead autofluor
CCN(CC)C(=O)C1=C(C)N(CCCN2CCCC2=O)C(=O)C(CC(=O)NC2CC2)C1 (configuration not stated) | 2927
CCCCC(=O)N(C)c1c(CC)nc2c(OCC(=O)c3ccc(F)cc3)cccn12 | 3538
Cc1ccc(Cl)cc1-c1cc(C(=O)NCc2ccco2)[nH]n1 | 3740
C[C@]12CCC3C(CC[C@H]4C[C@H](O)CC[C@]34C)C1C[C@@H](CCCCl)[C@@H]2O (some centres not stated) | 3391
CCOC1=C2CN(S(=O)(=O)c3ccc(C)cc3)[C@H](c3cccc(Cl)c3)C[C@H]2[C@H]2C(=O)N(c3ccccc3)C(=O)[C@H]2C1 | 5593
CC(C)C[C@@H](CN1CCC[C@H]1CN1C(=O)C(=O)NC[C@@H]1Cc1ccc(O)cc1)N1C[C@H](Cc2ccc(O)cc2)N(CC2CCCCCC2)C(=O)C1=O | 5588
C#CCNC(=O)C[C@@H]1C[C@@]2(C(=O)OCC)CCC=C2N(Cc2ccc3c(c2)OCO3)C1=O | 5531
COc1ccc(-n2sc3ccccc3c2=O)cc1 | 3042
CCn1cc(/C=C(\NC(=O)c2ccccc2OC)C(=O)N2CCOCC2)c2ccccc21 | 3715
CN1CCN(c2ncnc3c2ncn3[C@H]2CN(Cc3ccc(-c4ccccc4)cc3)C[C@@H](CO)O2)CC1 | 3512
COC(=O)[C@]12CCCCC=C1N(Cc1ccccc1)C(=O)[C@H](CC(=O)NCC1CCCCC1)C2 | 6568
CN(C)c1ncnc2c1nnn2C1OC(CO)C(O)C1O (configuration not stated) | 3593
CC1=C(C(=O)N2CCOCC2)CC(CC(=O)NCCc2ccccn2)C(=O)N1Cc1ccc(F)cc1 (configuration not stated) | 3700
Cc1ccsc1C(=O)N1CCCC(C)(C(=O)NS(=O)(=O)C2CC2)C1 (configuration not stated) | 3445
CN(CCOc1ccccc1)Cc1ccccc1 | 5967
O=C(NCc1ccccc1)C1c2ccccc2OCC(=O)N1Cc1ccccc1 (configuration not stated) | 5128
O=S1(=O)N[C@@H](Cc2ccccc2)COc2cc(N3CCN(Cc4ccccc4F)CC3)ccc21 | 4463
CCOC(=O)C1=CCN(S(=O)(=O)c2ccc(F)cc2)C1c1ccc(Br)cc1 (configuration not stated) | 5365
O=C(c1ccco1)N1CCN(C2CN(Cc3ccc([N+](=O)[O-])cc3)S(=O)(=O)C2)CC1 (configuration not stated) | 3446
CN1OC[C@@H]2CN(Cc3ccccc3)[C@H](c3ccc(-n4ccnc4)cc3)C[C@@H]21 | 4297
Cc1cccc(N2CCN(C(=O)COc3noc4nc(C)cc(C)c34)CC2C)c1 (configuration not stated) | 3477
O=C(COC(=O)C1CC(=O)N(Cc2ccccc2)C1)Nc1ccc([N+](=O)[O-])cc1Br (configuration not stated) | 4062
COc1ccc(C)cc1N1CC(C(=O)Nc2cccc(C(=O)NC3CC3)c2)CC1=O (configuration not stated) | 3836
COc1ccccc1-c1cnc(C(O)c2ccc(Cl)cc2)[nH]1 (configuration not stated) | 3043
CN(C)C(=O)c1cccc(-c2cnc3c(NC=O)cc(-c4cccc(C(F)(F)F)c4)cn23)c1 | 2939
COc1cc2c(cc1[N+](=O)[O-])-c1ccc([N+](=O)[O-])cc1C2=NO | 3259
CC1(C(=O)NCc2cccc3ccccc23)CCN1CCc1ccccc1 (configuration not stated) | 3600
Cc1ccsc1CN(C)c1ncnc2ccc(-c3ccoc3)cc12 | 3107
COc1ccc(C(=O)N2C=Cc3ccccc3C2C(N)=O)cc1 (configuration not stated) | 3804
Cc1c(C(=O)NCc2ccc3c(c2)OCCO3)sc(=O)n1Cc1ccc2c(c1)OCO2 | 4835
Cc1noc(C)c1-c1ccc(C(=O)Nc2cccc(C(F)(F)F)c2)c2occc12 | 3859
OC(c1cc(Cl)cc(Cl)c1)c1ncc(-c2ccccc2C(F)(F)F)[nH]1 (configuration not stated) | 2913
CCCCCCN1CCN(C2CN(Cc3ccc([N+](=O)[O-])cc3)S(=O)(=O)C2)CC1 (configuration not stated) | 2988
CC(NCCCSc1ccccc1)C(O)c1ccc(O)cc1 (configuration not stated) | 2943
O=C(O)c1cccc2c1C(=O)c1ccc(N3CCN(Cc4ccc5c(c4)OCO5)CC3)cc1S2(=O)=O | 3661
O=C(C[C@H]1C(=O)N(CCc2ccccc2)C[C@@H]1Cc1ccccc1)Nc1ccc(Br)cc1 | 2939
COc1ccc(CCNC(=O)COC(=O)C2=NNC(=O)CC2)cc1 | 3208
COc1ccc(Cc2c(-c3ccccc3)nc3cc(C)c(Br)c(C)n23)c(C)c1 | 6172
CC1(c2nnnn2Cc2ccccc2)CCC(=O)N1Cc1cccnc1 (configuration not stated) | 5972
O=C1N2CCCCC1(Sc1ccccc1)CCC2 (configuration not stated) | 5769
COC(=O)c1c[n+]([O-])ccc1OC | 6264
CCOC(=O)c1cc(-c2ccc(N3C(c4ccsc4)=Cc4ccccc4C3CC(C)=O)cc2)cc([N+](=O)[O-])c1 (configuration not stated) | 4484
CCc1nc2ccc(C(=O)NCCc3ccccn3)cn2c1N(CC)CCOC | 2688
CC(C)CN1Cc2cc(-c3ccccc3)ccc2-n2nncc2C1 | 4287
CC(C)(C)OC(=O)N1CCC(NC(=O)c2[nH]cnc2C(=O)Nc2ccc(Br)cc2F)CC1 | 3883

Four compounds out of the list, sorted by molar mass, rising:
SMILES | Bead autofluor
CC(NCCCSc1ccccc1)C(O)c1ccc(O)cc1 (configuration not stated) | 2943
CCCCCCN1CCN(C2CN(Cc3ccc([N+](=O)[O-])cc3)S(=O)(=O)C2)CC1 (configuration not stated) | 2988
O=C(C[C@H]1C(=O)N(CCc2ccccc2)C[C@@H]1Cc1ccccc1)Nc1ccc(Br)cc1 | 2939
CCOC(=O)c1cc(-c2ccc(N3C(c4ccsc4)=Cc4ccccc4C3CC(C)=O)cc2)cc([N+](=O)[O-])c1 (configuration not stated) | 4484

Additional structures follow.
SMILES | Bead autofluor
CCCCN1C(=O)C(CC(=O)NCC2CCCCC2)CC(C(=O)N2CCOCC2)=C1C (configuration not stated) | 3622
Nc1ncnc2c1ncn2[C@@H]1O[C@H](C(=O)N[C@@H](CO)Cc2ccccc2)[C@@H](O)[C@H]1O | 5923
CC(=O)NCCNc1nc2cc(-c3cscc3C)sc2c(=O)n1C | 3785
CC(C)C[C@H]1CNC(=S)N1C[C@H]1CCCN1C[C@H](Cc1ccccc1)N1C[C@H](Cc2ccc(O)cc2)N(CC2CCCCCC2)C1=S | 5486
O=C1C=C(c2n[nH]nc2-c2ccccc2)C[C@@H](c2ccc(F)cc2)C1 | 3768
CC(C)Nc1nc(Nc2ccc(F)cc2)c2sccc2n1 | 3828
C[C@@H]1CN([C@@H](C)CO)C(=O)CCCn2nncc2CO[C@H]1CN(C)C(=O)Nc1cccc2ccccc12 | 3630
Cc1ccc(Cc2c(-c3ccco3)nc3ccc(Br)cn23)cc1 | 6589
CC(=O)Nc1ccc(CNc2nc3cc(-c4ccccc4C)sc3c(=O)n2C)cc1 | 3053
COCCCN1C(=O)C(CC(=O)NCCCCc2ccccc2)CC(C(=O)N(C(C)C)C(C)C)=C1C (configuration not stated) | 5786
CCCCC[C@@H](C)N1C[C@H](COCc2ccccc2)Oc2cc(N3CC[C@H](O)C3)ccc2S1(=O)=O | 5989
CCc1nc2ccc(C(=O)Nc3cccc(NS(C)(=O)=O)c3)cn2c1N(C=O)CCC(C)C | 4638
O=C(c1cccs1)N1C[C@@H](n2cc(C3CC3)nn2)[C@H](O)C[C@@H]1c1ccc(Cl)cc1 | 3348
Cc1ccc(OCCCC(=O)N(C)CC(=O)Nc2c(C)cccc2C)cc1 | 3064
COc1ccc(C(=O)NCCCNc2nc3cc(C)cc(C)c3cc2C#N)cc1 | 3547
CC1(C(=O)Nc2ccc3c(c2)OCO3)Cc2c(-c3ccccc3)ccnc2O1 (configuration not stated) | 2762
CCOC(=O)C1=CCC2C(=O)N(C)C(=O)C12 (configuration not stated) | 5789
Cc1ccc(Cc2c(-c3cccc(Br)c3)nc3ccc(Br)cn23)cc1 | 7714
O=C(CSc1nnc(-c2cccc(Br)c2)o1)NCC1CCCO1 (configuration not stated) | 3233
COCCNC(=O)C1CCCN(Cc2ccccc2)CC1 (configuration not stated) | 3669
CCOC(=O)[C@]12CCC=C1N(Cc1ccc(Cl)cc1Cl)C(=O)[C@H](CC(=O)NCc1cccs1)C2 | 4172
Cc1cc(C)c2c(=O)n3c(nc2c1)C(CC(C)C)NC(=O)c1cc2ccccc2cc1-3 (configuration not stated) | 2799
CC1CCc2sc(C(=O)NN=C3CCCC3)cc2C1 (configuration not stated) | 4668
COCCn1c(SCC(=O)N2CCCC2)nc2c(c1=O)SCC2 | 3981
COc1ccc2c(c1)CCCO[C@]21O[C@H](CCO)C[C@H](O)[C@H]1O | 3789
OC[C@@H]1CN(Cc2cccs2)C[C@H](n2cnc3c(NCc4ccco4)ncnc32)O1 | 3549
CCN(C)C1CN(Cc2cn(Cc3cccc(Cl)c3)nn2)S(=O)(=O)C1 (configuration not stated) | 5724
CN(Cc1ccc(Cl)cc1Cl)C(=O)C1CSC2(C)CCC(=O)N12 (configuration not stated) | 3843
CC(C)Cc1ccc(CN2C(C)C(=O)N(Cc3cn(Cc4ccco4)nn3)CCS2(=O)=O)cc1 (configuration not stated) | 6247
CC1(Oc2ccc(Cl)cc2)CCN(Cc2ccc(OC(F)(F)F)cc2)C1 (configuration not stated) | 3500
COC(=O)N(C)C[C@@H]1OCc2cnnn2CCCC(=O)N([C@@H](C)CO)C[C@@H]1C | 3924
Cc1cc(NC(=O)COC(=O)COc2ccc(Cl)c(C)c2)no1 | 3509
O=C1NC[C@@H](CCCCN2CCN(Cc3ccccc3)C(=O)C2=O)N(Cc2ccccc2)C1=O | 5079
c1ccc(OCCNc2nc(NCC3CC3)nc3ccsc23)cc1 | 3815
O=S1(=O)CC(N2CC=CC2)CN1Cc1cn(Cc2ccc(F)cc2)nn1 (configuration not stated) | 5644
N#Cc1ccc(NC(=O)COC(=O)c2cccc(S(=O)(=O)N3CCCC3)c2)cc1 | 3869
CCCCN1C(=O)C(CC(=O)NC2CCCC2)CC(C(=O)N(C)C)=C1C (configuration not stated) | 3780
OC(c1ccc(F)c(F)c1)c1ncc(-c2ccccc2F)[nH]1 (configuration not stated) | 3921
COc1ccccc1CNC(=O)c1cc(-c2cc(F)ccc2OC)n[nH]1 | 3695
CN1OC[C@@H]2CN(Cc3ccc4c(c3)OCO4)[C@H](c3ccc(N4CCCCC4)cc3)C[C@@H]21 | 23460*
Cc1ccc(C(=O)O)cc1NCc1cccnc1 | 3919
Nc1ncnc2c1ncn2C1OCC(O)C1O (configuration not stated) | 5512
COCCN(C(=O)COC(=O)C12CC3CC(CC(O)(C3)C1)C2)c1c(N)n(Cc2ccccc2)c(=O)[nH]c1=O | 2923
Cc1cc(C(=O)N2CCCC(CO)(Cc3ccc(F)cc3F)C2)nn1C (configuration not stated) | 4236
CCOC(=O)[C@]12Cc3ccccc3[C@H]1N(Cc1ccccc1)C(=O)c1cc(F)c(F)cc12 | 4636
CCc1ccc(/C=C2\SC(=S)N(CCCC(=O)Nc3cc(C)on3)C2=O)cc1 | 3935
O=C(CC[C@H]1O[C@@H](n2cnc3c(NC(=O)c4ccccc4)ncnc32)[C@H](O)[C@@H]1O)NCc1cccs1 | 4275
COc1ccc(-c2ccc(CN3C(C(C)C)C(=O)N(Cc4cn(Cc5ccco5)nn4)CCS3(=O)=O)cc2)cc1 (configuration not stated) | 3718
CCCCN(C(=O)c1ccccc1Cl)C(CC(C)C)c1nc2ccccc2[nH]1 (configuration not stated) | 5813
CCC(=O)N1Cc2cc(C(=O)Nc3nccs3)nc(-c3cccc(-c4ccccc4OC)c3)c2[C@@H]1CCO | 5889
COC(=O)c1cc(S(=O)(=O)Nc2cccc(-c3ccno3)c2)c[nH]1 | 3874
O=C(Nc1ccc(N2CCOCC2)cc1)c1cccc2c(-c3ccc(F)c(F)c3)coc12 | 3987
Cc1ccc(S(=O)(=O)N2C[C@@]3(O)Cn4c(=O)ccc(=O)n4C[C@@]3(OC(=O)NCC3CCCCC3)C2)cc1 | 6239
Cc1noc(C)c1NC(=O)N(C)C[C@@H]1Oc2ncc(Br)cc2C(=O)N([C@H](C)CO)C[C@@H]1C | 3283
CC(C)Nc1nc(NCCOc2ccccc2Cl)c2sc(-c3ccccc3)cc2n1 | 3180
CCNC(=O)C1(C)CCCN(C(=O)c2ccc3ccccc3n2)C1 (configuration not stated) | 2787
CCOC(=O)C1(C)CCCN(C(=O)c2cccnc2SC)C1 (configuration not stated) | 4189
O=C(Nc1ccc(F)c(Cl)c1)c1cc(C2CCCCN2C(=O)c2ccc(Cl)cc2)on1 (configuration not stated) | 3599
CC(C)n1nnnc1C1c2ccccc2C(=O)N1Cc1ccccc1 (configuration not stated) | 4359
N#Cc1cccc(OCCCN2CCC(C(O)(c3ccccc3)c3ccccc3)CC2)c1 | 4968

Other records follow:
SMILES | Bead autofluor
C[C@H](c1ccccc1)N1C[C@H](COCc2ccccc2)Oc2cc(N3CC[C@H](N(C)C)C3)ccc2S1(=O)=O | 5737
CC(O)(c1cccc(F)c1)c1nc(-c2ccoc2)cs1 (configuration not stated) | 3829
CC(=O)NCCNC(=O)C1Cc2c(-c3cccc(NC(C)=O)c3)ccnc2O1 (configuration not stated) | 3587
Nc1nc2c(ncn2[C@@H]2O[C@H](CNCc3ccc(F)c(N4CCOCC4)c3)[C@@H](O)[C@H]2O)c(=O)[nH]1 | 5241

Rewritten with each value named: 4 of the compounds above.
SMILES: C[C@H](c1ccccc1)N1C[C@H](COCc2ccccc2)Oc2cc(N3CC[C@H](N(C)C)C3)ccc2S1(=O)=O
  Bead autofluor: 5737
SMILES: CC(O)(c1cccc(F)c1)c1nc(-c2ccoc2)cs1 (configuration not stated)
  Bead autofluor: 3829
SMILES: CC(=O)NCCNC(=O)C1Cc2c(-c3cccc(NC(C)=O)c3)ccnc2O1 (configuration not stated)
  Bead autofluor: 3587
SMILES: Nc1nc2c(ncn2[C@@H]2O[C@H](CNCc3ccc(F)c(N4CCOCC4)c3)[C@@H](O)[C@H]2O)c(=O)[nH]1
  Bead autofluor: 5241
